NPYLR7 ag: agonists of mosquito NPYLR7 receptor, primary screen, cell-based, Aedes aegypti, calcium fluorescence, mosquito biting behavior. activation, % at 10 µM. Aedes aegypti neuropeptide Y-like receptor 7 (NPYLR7). HEK293T NPYLR7/Galpha15, GCaMP6s calcium fluorescence. hit rate 0.15% among 270,000; in the data active = activation above about 40%;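 also: 0% = vehicle and 100% = reference agonist at the receptor; some compounds past the cut are filed as inactive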
NPYLR7 ag max-min: second read-out of NPYLR7 ag, no call of its own (marks repeat the call); activation, %; measured here: Max-Min RFU normalised activation; some inactives read as strong as hits;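 span of the calcium signal over five minutes; 0% = vehicle and 100% = native peptide agonist; compound fluorescence can raise it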
Starred values were filed as active, the others as inactive; & = joins results of further samples. These rows are one share of the data; the hit share may differ from the screen's.

SMILES	NPYLR7 ag	NPYLR7 ag max-min
COc1ccc(CCNC(=O)C(C2CCCC2)N2CCN(C(=O)c3ccccc3OC)CC2)cc1 (configuration not stated)	-2	-3
Cc1cc(NC(=O)CN(C)Cc2ccc(Cl)s2)no1	4&2	3&2
Cc1oc(-c2cccc(F)c2)nc1CC(=O)N1CCc2ccccc2C1c1ccc(Cl)cc1 (configuration not stated)	6	6
COCCN(Cc1ccc2c(c1)OCO2)Cc1ccc(C(C)(C)O)o1	14	11
Cc1nc2c(OCC(=O)c3ccc(F)cc3)cccn2c1N(C)Cc1cccs1	9	1
CN(C)Cc1nc(C(=O)N(C)Cc2nc3ccc(F)cc3[nH]2)cs1	5	2
COC(=O)c1c(NC(=O)c2cnn3c(C(F)(F)F)cc(-c4ccc(OC)cc4)nc23)sc2c1CCCC2	-4	-5
Cc1ccc2cc(CN3CCN(c4ncc(F)cn4)CC3)c(=O)[nH]c2c1	25	10
O=C1CCCN1CCCN1COc2ccc3c(=O)c(-c4ccc(Cl)cc4)coc3c2C1	-4	-6
CCn1c(C2CCCN(C(=O)CCn3c(C)cccc3=O)C2)nn(C)c1=O (configuration not stated)	4	1
Cc1cc(C2CCC2)nc(N2CC(n3cccn3)C2)n1	4	3
Nc1nc(SCC(=O)NCC2CCCO2)[nH]c(=O)c1NC(=O)c1ccccc1 (configuration not stated)	-8	-11
CCOC(=O)N1CCN(C(=O)CC2C(=O)NCCN2Cc2ccc(C)o2)CC1 (configuration not stated)	14	0
O=C(CNC(=O)Cc1ccccc1)N=Nc1c(O)[nH]c2c(Br)cc(Br)cc12	11	9
CC(=O)N1CCN(c2c(C)cnc3c2c(=O)n(CC(=O)N(C(C)C)C(C)C)c(=O)n3C)CC1	2	-1
O=c1/c(=C/c2ccco2)sc2nc(-c3ccncc3)nn12	-5	-8
Cc1ccc(OCC2CN(C(=O)c3ccc(C#N)cc3F)CCO2)cc1 (configuration not stated)	12	8
COc1ccccc1-c1cnn2c(C)c(C(=O)N3CCCC3C)cnc12 (configuration not stated)	8	1
COCCNC(=O)Cn1nc(C(C)C)c2cnn(-c3ccc(F)cc3)c2c1=O	6	6
CCN(CC)C(=O)Oc1ccc2c(ccn2Cc2cccc(C)c2)c1NC(=O)c1ccc([N+](=O)[O-])o1	-2	-10
Cc1cnc(C(=O)N2CCCC(C(=O)c3ccc4c5c(cccc35)CC4)C2)cn1 (configuration not stated)	7	9
OCC1(NCc2csc(COc3ccccc3)n2)CCOCC1	2	-3
S=c1nc[nH]c2nc[nH]c12	23&-13&-21&-5	6&-18&-30&-11
CCCCOc1ccc(C(=O)Nc2cc(C3CC3)nn2-c2nc(C)c(C)c(=O)[nH]2)cc1	12	12
COc1ccc2[nH]c(-c3ccccc3)c(CCNC(C)=O)c2c1	-11	-14
CSCc1noc(CNC2CCN(c3cccc(C)c3C)CC2)n1	17	13
CN(C)C(=O)C1CN(C(=O)c2ccc(-c3ccccc3Cl)o2)c2ccccc2O1 (configuration not stated)	-2	-3
COc1ccc(OC(C)CNC(=O)Cc2ccc(Cl)nc2)cc1 (configuration not stated)	0	0
CCOC(=O)c1ccc2c(c1)nc(SCc1cc(F)ccc1C(F)(F)F)n2Cc1ccccc1	-4	-7
CSc1ccc(CN2CCC2(C)C(=O)NCc2cccs2)cc1 (configuration not stated)	1	2
COCCNC(=O)CSc1c(C(C)C)cnc2c1c(=O)n(C)c(=O)n2C	2	5
COC(=O)C1CCN(C(c2cccc(OC)c2)C2Sc3nc(C)nn3C2=O)CC1 (configuration not stated)	-3	-3
C=CCNCC1CC(c2ccc(C)cc2)=NO1 (configuration not stated)	1	-4
CCCN(Cc1nnc(-c2cccs2)o1)C(=O)c1ccc(=O)[nH]c1	9	9
COC1(OC)N=C(N)C2(C#N)C(c3ccccc3Cl)C12C#N (configuration not stated)	2	-2
C=C(C)COc1ccc(-n2c(C)cn3c4c(=O)n(C)c(=O)n(C)c4nc23)cc1	5	0
COCC(=O)Nc1c(C)nc2scc(C)n2c1=O	11	2
CSCCC(NC(=O)c1ccccc1Cl)C(=O)NCC1CCOC1 (configuration not stated)	9	4
COC(=O)c1cc(OC)cc2c1OC(CNC(=O)c1cc(OC)c(OC)c(OC)c1)C2 (configuration not stated)	2	0
Cc1cc(C)n(-c2ccc(C(=O)NCCc3ccccc3)cc2)n1	1	0
Cc1cc(C)cc(-n2nc(C(=O)N3CCCC3)c(=O)n(Cc3ccccc3F)c2=O)c1	-2	5
NOCc1ccccc1	1	-2
Cc1sc(-c2cccc(O)c2)nc1-c1ccccc1	-2	-2
CN1C(=O)C2(CCCN(C(=O)c3cnn4c3CCCC4)C2)c2ccccc21 (configuration not stated)	8	0
CCOCCn1c(N2CCC(C(N)=O)CC2)nc2c1c(=O)n(C)c(=O)n2C	-1	-5
O=C(NNc1cnccn1)Nc1ccc(F)cc1	23	19
COc1ccc(-n2c(SCC(=O)N3CCN(C(=O)c4cc(Cl)cc(Cl)c4)C(C)C3)nnc2-c2cccc(OC)c2)cc1 (configuration not stated)	-8	-5
Cc1cc(C(=O)N2CCC(C(=O)Nc3ccc(Oc4ccccc4)nc3)CC2)nc(C)n1	1	1
C=CCN(CC(=O)N(CCc1ccc(OC)c(OC)c1)Cc1ccc(C)o1)C(=O)c1cccc(Br)c1	1	0
CC1(C(=O)Nc2cccc(NS(C)(=O)=O)c2)CCN1Cc1ccccc1OC(F)F (configuration not stated)	4	-1
Next records:
SMILES	NPYLR7 ag	NPYLR7 ag max-min
C=CCN(CC=C)c1cc(Cl)nc(SCc2ccc(C(=O)NCCC(c3ccccc3)c3ccccc3)cc2)n1	-2	0
OC(COc1ccccc1)CSc1nnnn1CC1CCCO1 (configuration not stated)	-3	-5
O=C(NCCCN1CCCC1=O)c1cc2n(n1)CCN(Cc1cccc(C(F)(F)F)c1)C2=O	16	5
O=C1C(=Cc2cc(Br)ccc2F)SC(=S)N1CCCN1CCOCC1	0	35
CC1(C)CC(NC(=O)COc2cc(Cl)ccc2Cl)CC(C)(C)N1	15	9
Cc1ccc(CN(C)C(=O)CCc2nnc(Cc3c[nH]c4ccccc34)o2)o1	4	2
CCN(CC)C1=C(c2c(C)[nH]n(-c3cc(C)ccc3C)c2=O)C(=O)N(CC2CCCO2)C1=O (configuration not stated)	28	38
COc1ccc(F)c(CN2CCCC3(CCN(C(=O)/C=C/c4ccco4)C3)C2)c1 (configuration not stated)	0	0
CCOC(=O)c1c(CN2CCN(c3ccccc3C)CC2)n(C2CCCCC2)c2cc(Br)c(O)cc12	6	5
COc1ccc(-c2csc(C(C#N)C(=O)CC3C=CCC3)n2)cc1 (configuration not stated)	0	1

Two compounds drawn at random from the list so far, as already listed:
SMILES	NPYLR7 ag	NPYLR7 ag max-min
Cc1cc(C)n(-c2ccc(C(=O)NCCc3ccccc3)cc2)n1	1	0
CC(=O)N1CCN(c2c(C)cnc3c2c(=O)n(CC(=O)N(C(C)C)C(C)C)c(=O)n3C)CC1	2	-1

The list continues.
SMILES	NPYLR7 ag	NPYLR7 ag max-min
COc1ccc(C(=O)/C=C/c2ccc(N3CCC(c4ccc(OC)cc4)=N3)cc2)cc1	-4	-6
O=C(COc1ccc(Cl)cc1Cl)Nn1c(O)c(C2=c3ccccc3=NC2=O)sc1=S	-3	1
COCCN1C(=O)N(C2Cc3ccccc3C2)C(=O)C12CCN(Cc1cccn1-c1ccccn1)CC2	10	-6
COc1cccc(-c2cnc(C(O)c3ccccc3OC)[nH]2)c1 (configuration not stated)	-1	-2
CCOC(=O)N1CCN(C(c2ccc(OC)cc2)C2Sc3nc(C)nn3C2=O)CC1 (configuration not stated)	-2	-3
COc1ccccc1/C=C/C1=NC(=C\c2ccc(Cl)c(Cl)c2)/C(=O)O1	0	-3
COc1ccc(CN(C(=O)Nc2cccc(Cl)c2)C2CC2)cc1	1	1
Cn1c(=O)c2c(ncn2CC(=O)NCCC23CC4CC(CC(C4)C2)C3)n(C)c1=O	0	1
COc1ccc(CCOc2nc(-c3ccc(C(F)(F)F)cc3)n(-c3cccc(NC(=O)c4ccc([N+](=O)[O-])cc4)c3)n2)cc1	23	12
CC1=CC(=NNc2ccc(C(F)(F)F)cn2)CC(C)(C)C1	4&-1	6&-6
CS(=O)(=O)Nc1cccc(-c2ccc(S(C)(=O)=O)nn2)c1	8	2
C=C(Br)CN(Cc1cccc(O)c1)C1CCC(O)CC1 (configuration not stated)	5	3
Nc1nc2c(s1)CN(c1nc(C3CCCC3)nc3c1CNC3)CC2	2	0
Cc1ccc(-c2nc(C(=O)Nc3nccs3)cs2)cc1	9	8
O=C(NCC1CCCO1)c1nn(-c2ccc(Cl)cc2)c(=O)n(Cc2ccccc2F)c1=O (configuration not stated)	17	14
N#Cc1ccc(-c2ccc3c(n2)C(=O)N(CC(=O)NCc2nccs2)C3)cc1	-14	-15
O=C(NCC1CCCO1)[C@@]1(OCc2cccc(F)c2)CC(OCc2cccc(OC(F)(F)F)c2)[C@H](O)[C@H](O)C1 (some centres not stated)	4	4
COCC1CCN(C(=O)c2ccc(OC3CCN(S(C)(=O)=O)CC3)c(Cl)c2)C1 (configuration not stated)	4	-1
CCOc1ccc(CNC(=O)N2CCC3(CC2)OCCO3)cc1F	1	0
COc1ccc(/C=C2\Oc3cc(OCC(N)=O)ccc3C2=O)cc1	3	7
COc1cccc(C(=O)Nc2cccc(-c3nc4ccccc4o3)c2)c1	-5	-6
Cc1ccccc1CSc1nnc(C(C)NC(=O)/C=C/c2ccc([N+](=O)[O-])cc2)n1-c1ccc([N+](=O)[O-])cc1 (configuration not stated)	-9	-3
O=C1OC2CC1(O)CC(O)C2O (configuration not stated)	2	2
Cn1cccc1C1CCCN1Cc1nc2ccc(Cl)cc2c(=O)[nH]1 (configuration not stated)	2	1
CC1=C(C(=O)OC(C)C)C(c2ccccc2)NC(=O)N1 (configuration not stated)	-15	-15
Cc1ccc(-c2ccc(=O)n(Cc3cccnc3)n2)cc1C	9	6
CN(C)CCNC(=O)c1ccc(-c2cnn(C)c2)c2ccoc12	6	4
COc1cccc(-c2ccc(C(N)=O)cc2)c1OC	3	2
O=C(c1cc(F)cc(C(F)(F)F)c1)N1CCC(CCc2ccc(C(F)(F)F)cc2)CC1	2	4
CCC(Nc1nnnn1-c1ccccc1)c1ccc(OC)cc1 (configuration not stated)	7	7
Cc1ccc(NC(=O)NCCn2ncccc2=O)c(C)c1	-14	-19
CC1C(=O)Nc2ccccc2N1C(=O)CCc1c[nH]c2ccccc12 (configuration not stated)	-2	-8
CCOc1ccc(/C=N\Nc2ncnc3nc[nH]c23)cc1	4	0
O=C(c1cccc(-c2ncc[nH]2)c1)N1CCc2c([nH]c3ccccc23)C1c1ccccc1F (configuration not stated)	10&-7	-1&-12
Cc1ncc(-c2cc(C(=O)N3CCCCCCC3)c3ccc(F)cc3n2)cn1	-2	-10
CNCC(=O)NCCSc1ccc(Cl)cc1	-1	29
CCNS(=O)(=O)c1ccc(C(=O)N(C)Cc2ccc(Cl)s2)cc1	-1	0
Cc1ccc(C(NC(=O)C2CCN(Cc3ccccc3)CC2)c2ccccn2)cc1 (configuration not stated)	-13	-1
CC12CC(NC(=O)N1c1cc(F)ccc1F)c1ccccc1O2 (configuration not stated)	6	5
CN(CC(=O)Nc1ccccc1Cl)C(=O)c1sccc1-c1ccccc1	2	2

Reformatted in markdown: entries from further up.
| Structure | NPYLR7 ag | NPYLR7 ag max-min |
| --- | --- | --- |
| COc1ccc(CCNC(=O)C(C2CCCC2)N2CCN(C(=O)c3ccccc3OC)CC2)cc1 (configuration not stated) | -2 | -3 |
| Cc1cc(NC(=O)CN(C)Cc2ccc(Cl)s2)no1 | 4&2 | 3&2 |
| Cc1oc(-c2cccc(F)c2)nc1CC(=O)N1CCc2ccccc2C1c1ccc(Cl)cc1 (configuration not stated) | 6 | 6 |
| COCCN(Cc1ccc2c(c1)OCO2)Cc1ccc(C(C)(C)O)o1 | 14 | 11 |
| Cc1nc2c(OCC(=O)c3ccc(F)cc3)cccn2c1N(C)Cc1cccs1 | 9 | 1 |
| CN(C)Cc1nc(C(=O)N(C)Cc2nc3ccc(F)cc3[nH]2)cs1 | 5 | 2 |
| COC(=O)c1c(NC(=O)c2cnn3c(C(F)(F)F)cc(-c4ccc(OC)cc4)nc23)sc2c1CCCC2 | -4 | -5 |
| Cc1ccc2cc(CN3CCN(c4ncc(F)cn4)CC3)c(=O)[nH]c2c1 | 25 | 10 |
| O=C1CCCN1CCCN1COc2ccc3c(=O)c(-c4ccc(Cl)cc4)coc3c2C1 | -4 | -6 |
| CCn1c(C2CCCN(C(=O)CCn3c(C)cccc3=O)C2)nn(C)c1=O (configuration not stated) | 4 | 1 |
| Cc1cc(C2CCC2)nc(N2CC(n3cccn3)C2)n1 | 4 | 3 |
| Nc1nc(SCC(=O)NCC2CCCO2)[nH]c(=O)c1NC(=O)c1ccccc1 (configuration not stated) | -8 | -11 |
| CCOC(=O)N1CCN(C(=O)CC2C(=O)NCCN2Cc2ccc(C)o2)CC1 (configuration not stated) | 14 | 0 |
| O=C(CNC(=O)Cc1ccccc1)N=Nc1c(O)[nH]c2c(Br)cc(Br)cc12 | 11 | 9 |
| CC(=O)N1CCN(c2c(C)cnc3c2c(=O)n(CC(=O)N(C(C)C)C(C)C)c(=O)n3C)CC1 | 2 | -1 |
| O=c1/c(=C/c2ccco2)sc2nc(-c3ccncc3)nn12 | -5 | -8 |
| Cc1ccc(OCC2CN(C(=O)c3ccc(C#N)cc3F)CCO2)cc1 (configuration not stated) | 12 | 8 |
| COc1ccccc1-c1cnn2c(C)c(C(=O)N3CCCC3C)cnc12 (configuration not stated) | 8 | 1 |
| COCCNC(=O)Cn1nc(C(C)C)c2cnn(-c3ccc(F)cc3)c2c1=O | 6 | 6 |

The list goes on:
SMILES	NPYLR7 ag	NPYLR7 ag max-min
NCCn1ncc2c(=O)n(Cc3ccccc3)cnc21	-2	-4
CC1COCCN1c1ccc(NC(=O)c2cnn(C(C)(C)C)c2)cc1 (configuration not stated)	-4	-4
CCCCn1c(SCC(=O)NC(C)CC)nc2sc(C)c(C)c2c1=O (configuration not stated)	11	8
CC1CCN(c2ccc(NC(=O)NCc3[nH]ncc3Br)cc2)CC1	2	6

Compound activity as filed in PubChem.
